Screens as filed in PubChem BioAssay.
KCNQ2 enhance = potentiators of rat KCNQ2 potassium channel; B-score at 10 µM; Potassium voltage-gated channel subfamily KQT member 2 (Rattus norvegicus), O88943; CHO-K1 KCNQ2, FluxOR thallium flux fluorescence; hits give high values; 310,000 compounds, 0.54% hits; AID 2239, 2010;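 active = fluorescence ratio B-score at least 3 SD of library B-scores, with initial fluorescence B-score within 3 SD, cut at about 5.3 in these data; same plate scores as AID 2156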;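 note: B-score of peak minus minimum over baseline fluorescence ratio after K+ and Tl+ stimulus; positive B-score means potentiation of KCNQ2 with more thallium influx and brighter signal; only the inactives scoring about 0 or higher are listed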
Target sequence (O88943 whole entry, looked up): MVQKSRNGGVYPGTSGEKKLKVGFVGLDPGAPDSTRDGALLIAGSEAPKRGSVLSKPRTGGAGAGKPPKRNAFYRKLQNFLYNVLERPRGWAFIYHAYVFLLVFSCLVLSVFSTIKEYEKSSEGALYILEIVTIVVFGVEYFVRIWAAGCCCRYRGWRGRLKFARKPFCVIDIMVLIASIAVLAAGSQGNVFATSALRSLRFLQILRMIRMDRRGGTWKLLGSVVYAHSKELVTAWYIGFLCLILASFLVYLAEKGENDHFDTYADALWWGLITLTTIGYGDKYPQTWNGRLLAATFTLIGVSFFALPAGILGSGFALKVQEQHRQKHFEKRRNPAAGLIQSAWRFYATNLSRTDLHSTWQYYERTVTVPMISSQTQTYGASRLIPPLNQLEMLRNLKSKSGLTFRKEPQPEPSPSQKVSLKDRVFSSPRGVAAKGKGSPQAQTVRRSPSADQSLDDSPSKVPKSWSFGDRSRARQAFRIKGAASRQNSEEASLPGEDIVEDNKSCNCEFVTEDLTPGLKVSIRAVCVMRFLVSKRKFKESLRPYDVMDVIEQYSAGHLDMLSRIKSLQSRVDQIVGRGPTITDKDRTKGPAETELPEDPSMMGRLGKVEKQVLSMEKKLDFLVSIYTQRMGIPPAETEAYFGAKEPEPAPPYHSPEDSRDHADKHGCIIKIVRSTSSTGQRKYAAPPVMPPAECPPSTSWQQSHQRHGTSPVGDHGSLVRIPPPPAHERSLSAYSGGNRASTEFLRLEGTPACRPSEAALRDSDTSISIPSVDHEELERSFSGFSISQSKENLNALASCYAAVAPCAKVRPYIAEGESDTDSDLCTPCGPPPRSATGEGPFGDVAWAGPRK
KCNQ2 enhance baseline = further read-out of KCNQ2 enhance, marked with its call; B-score; compound at 10 µM; measured here: initial fluorescence intensity artifact check;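 brightness before thallium and not channel activity; 0 = typical well and far values either way flag optical interference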
Active calls of the source: *. The list is partial; the hit share may differ from the screen's.

The line under a structure holds: KCNQ2 enhance, KCNQ2 enhance baseline
[1] Cc1ccc([N+](=O)[O-])cc1NC(=O)c1ccc(CSc2ccccc2)cc1
    0.57, -0.1
[2] COc1cc(C(CC(=O)Nc2ncccc2C)N2Cc3ccccc3C2=O)cc(OC)c1OC (stereo unspecified)
    0.13, -0.39
[3] O=c1c2ccccc2nc(-c2ccco2)n1-c1nc2ccccc2s1
    1.7, -0.28
[4] NS(=O)(=O)c1ccc(CCNC(=O)c2cc(-c3cccs3)nc3ccccc23)cc1
    0.32, 0.04
[5] COc1ccc(NC(=O)COC(=O)CCCOc2ccc(Cl)cc2Cl)cc1
    0.94, 2.2
[6] COCc1c(C(C)C)nc(C(C)C)c(/C=C/[C@@H](O)C[C@@H](O)CC(=O)O)c1-c1ccc(F)cc1
    0.59, 1.9
[7] CC(=O)Nc1cccc(NC(=O)CSc2nc(=O)n(Cc3ccncc3)c3c2CCC3)c1
    0.06, -0.65
[8] CCC(=O)Nc1cc(C)c(NC(=O)c2ccccc2OC)cn1
    0.09, 0.42
[9] COc1cc(-c2nnn(CC(=O)NCc3ccccc3)n2)cc(OC)c1OC
    0.51, 2.3
[10] Cn1ncc2c(Sc3ccc(Cl)cc3)ncnc21
    0.56, 0.77
[11] CSc1cccc(NS(=O)(=O)c2ccc(F)cc2)c1
    0.48, -2
[12] N#Cc1ccc(Cl)cc1NC(=O)CSc1nc2nc(-c3cccs3)cc(C(F)(F)F)c2c(=O)[nH]1
    1.5, -0.15
[13] CC(C)CN(CCNC(=O)c1cn(C)c2ccc(S(=O)(=O)N3CCCC3)cc2c1=O)CC(C)C
    0.24, 0.44
[14] O=C(Nc1cccc(NC(=O)c2ccccc2[N+](=O)[O-])c1)c1ccccc1Cl
    0.36, 0.16
[15] C/C(=N\NC(=O)c1cc(C)[nH]n1)C(C)(C)C
    0.12, 0.18
[16] Cc1cc(Oc2ccccc2)nc(SCC(=O)Nc2ccc(Cl)c(Cl)c2)n1
    5.5*, 0.12*
[17] CC(NC(=O)Nc1ccccc1)c1ccccc1 (stereo unspecified)
    5.9*, 0.65*
[18] C=CCC1NS(=O)(=O)OCC1C(C)C (stereo unspecified)
    0.1, 1.1
[19] CC1CCN(C(=S)Nc2ccc(SC(F)F)cc2)CC1
    0.69, 1.8
[20] CCN(CC)CCC(c1ccc(OC)cc1)c1c(O)cc(OC)cc1OC (stereo unspecified)
    1.6, 1
[21] Nc1cc(=O)[nH]c(SCc2cccc3ccccc23)n1
    0.87, -0.75
[22] CCc1nnc(NC(=O)CSc2nnc(-c3c[nH]c4ccccc34)n2C)s1
    0.67, -2.7
[23] CCOC(=O)c1cc(C(=O)NN)c(C)nc1C
    1.2, -0.46
[24] O=C(N=C1SC2CS(=O)(=O)CC2N1c1cc(Cl)ccc1Cl)C1CC1 (stereo unspecified)
    1.6, 0.41
[25] CCCn1c(CN2CCN(C(=O)OCC)CC2)nc2c1c(=O)n(C)c(=O)n2C
    1.7, -0.92
[26] CCN(c1cccc(C)c1)C(C(=O)Nc1ccc(OC)cc1)c1cc2c(cc1[N+](=O)[O-])OCO2 (stereo unspecified)
    0.16, -0.36
[27] CCc1nn2c(=O)cc(CSc3nc(C)cc(=O)[nH]3)nc2s1
    1.3, -0.33
[28] CC(C)c1cc(C(=O)O)n(-c2ccccc2)n1
    0.96, 0.92
[29] CCOc1ccc(NC(=O)CSc2nc3ccsc3c(=O)n2CCC(=O)O)cc1
    0.86, -0.05
[30] N#CC1(NC(=O)CSc2ccccn2)CCCCC1
    0.46, -2.2
[31] O=c1c[n+]([O-])c2ccccc2n1OCc1c(F)cccc1F
    0.11, -0.29
[32] Cc1ccnc(NC(=O)C2CC(=O)N(Cc3ccccc3)C2)c1 (stereo unspecified)
    0.46, 0.67
[33] O=C(O)CC(CC(=O)Nc1nncs1)c1ccccc1 (stereo unspecified)
    0.35, 3.1
[34] Cc1ccc(C(C(=O)NC2CCCC2)N(C(=O)c2csnn2)c2ccccc2)o1 (stereo unspecified)
    1.3, -1
[35] O=C(NC1CCS(=O)(=O)C1)c1ccc2c(c1)OCO2 (stereo unspecified)
    1.1, -0.84
[36] CSc1nc2ccccc2n1C(=O)Oc1ccccc1
    0.82, -0.61
[37] O=C1CC(SC2=NCCS2)C(=O)N1c1ccc(Br)cc1 (stereo unspecified)
    0.08, 0.77
[38] O=c1[nH]n2c(=O)c3c([nH]c2c1N=Nc1cccc(C(F)(F)F)c1)CCCC3
    1.3, 1.4
[39] COC(=O)c1cn(NC(=O)Cc2cccc(OC)c2)c(=O)c2ccccc12
    7.2*, -0.09*
[40] Cc1cc(C)cc(NC(=O)CSc2nnc(-c3ccccc3)n2N)c1
    0.82, 0.27
[41] COc1ccc(C(=O)NCC(=O)OCC(=O)N2CC(C)CC(C)C2)cc1 (stereo unspecified)
    1.9, -1.2
[42] C[N+]1(CCCCSc2ccc(O)cc2)CCCCC1
    0.36, -1.7
[43] O=[N+]([O-])c1ccc(N2CCN(C(=S)NCc3ccc(Cl)cc3)CC2)cc1
    0.86, -0.69
[44] O=C(CSc1cnc2ccccc2n1)NC1CCCC1
    0.53, 1.1
[45] O=C1N=C(N2CCCCC2)S/C1=C\c1ccccc1F
    0.45, 1.4
[46] CCCC1OC2CC3C4CCC5=CC(=O)C=CC5(C)C4C(O)CC3(C)C2(C(=O)O)O1 (stereo unspecified)
    0.33, 0.02
[47] O=C(O)CC(=O)Nc1cc(Cl)ccc1O
    0.44, -0.01
[48] COc1ccc(OC)c(CNS(=O)(=O)c2cn(C)cn2)c1
    0.04, -0.41
[49] Cc1ccc(OCCNC(=O)c2ccc3c(c2)OCO3)cc1
    0.22, -0.68
[50] O=C(CN1C(=O)c2ccccc2S1(=O)=O)NCc1ccccn1
    0.47, 1
[51] C=CCN(C(=O)CN1CCOCC1)c1nc(C)c(-c2ccccc2)s1
    1.1, -1.7
[52] COc1cccc(C(=O)NC(=S)Nc2cccnc2)c1
    0.07, 0.95
[53] CCn1c(O)c(N=NC(=O)c2cccnc2)c2cc(Br)ccc21
    0.25, 0.78
[54] CCOc1ccc(-n2c(CCc3ccccc3)n[nH]c2=S)cc1
    0.06, -1.2
[55] CCOc1cc(C(=O)N/N=C/c2ccoc2)cc(OCC)c1OCC
    0.88, 1.1
[56] COc1ccc(CC(NC(C)=O)C(=O)NC2CCN(C(=O)Nc3ccccc3Cl)CC2)cc1OC (stereo unspecified)
    1.8, 0.9
[57] Cc1cccc(-n2c(O)c(C=Nc3ccc(O)cc3)c3ccccc3c2=O)n1
    0.44, -0.97
[58] Cc1cc(C)nc(NC(=O)C2c3ccccc3Oc3ccccc32)n1
    2.1, -0.07
[59] CC1CN(C(=O)CCS(=O)(=O)c2ccccc2)CC(C)O1 (stereo unspecified)
    1.4, 0.82
[60] CC(C)CC(=O)c1c[nH]c(C(=O)N2CCN(Cc3ccccc3)CC2)c1
    3.1, -0.06

The results go on.
The line under a structure holds: KCNQ2 enhance, KCNQ2 enhance baseline
[61] Cc1cccc(NC(=S)NNC(=O)c2ccc3c(c2)OCO3)c1
    1.3, -0.23
[62] Cn1cc(S(=O)(=O)N2CCOCC2)cc1C(=O)Nc1ccc(Cl)cc1
    0.6, -0.2
[63] Cc1cc(C)nc(OC(C(=O)O)C(OCc2ccccc2)(c2ccccc2)c2ccccc2)n1 (stereo unspecified)
    0.82, 0.98
[64] CCC(CC)NC(=O)Cc1ccc(S(=O)(=O)N2CCOCC2)s1
    1.3, 0.58
[65] CC(=O)N1CCc2cc(S(=O)(=O)NC(Cc3ccccc3)C(=O)O)ccc21 (stereo unspecified)
    0.42, 1.7
[66] O=C1CCN(Cc2ccc(Br)cc2)CCN1CCO
    0.77, 1.3
[67] O=C(NC(=S)N1CCN(c2nc(-c3ccccc3)cs2)CC1)c1cccnc1
    2, 0.97
[68] CCC(=O)Nc1nc(C)c(-c2csc(Nc3ccc(C(=O)O)cc3)n2)s1
    0.01, -0.05
[69] COc1ccc(CC(NC(C)=O)C(=O)N2CCN(C(=O)N(C(C)C)C(C)C)CC2)cc1 (stereo unspecified)
    0.22, -0.38
[70] COc1ccc(NC(=O)CNS(=O)(=O)c2ccc3nc(C)sc3c2)c(OC)c1
    0.16, 1.1
[71] CC(C)(C)c1ccc(C(=O)NC(=S)NNC(=O)c2cccs2)cc1
    4.4, 0.05
[72] CCOc1ccc(C)cc1S(=O)(=O)n1ccc(C)n1
    0.59, -0.07
[73] CCNC(=S)NCc1ccc2c(c1)OCO2
    2.5, -0.65
[74] CCN(CC)CCCN(CC(=O)N(C)Cc1ccccc1)C(=O)c1ccc([N+](=O)[O-])cc1
    0.91, 0.7
[75] CC(=O)N(Cc1ccccc1C)c1cccc(C)c1C
    0.69, -1
[76] Cc1ccc(C(C(=O)NC2CCCC2)N(Cc2ccccc2)C(=O)c2csnn2)o1 (stereo unspecified)
    1.1, 1.1
[77] CCCc1ccc2oc(C(=O)NCCN3CCCC(O)C3)c(C)c2c1 (stereo unspecified)
    0.14, 0.72
[78] O=C(O)CSCC(=O)N1CCCCC1
    1.2, 0.68
[79] Cn1ncc2c(Nc3cccc4ccccc34)ncnc21
    0.17, -0.76
[80] Cc1ccc(NC(=S)N(Cc2ccco2)C2CCN(C(C)C)CC2)cc1
    1.1, 0.86
[81] COc1ccc(S(=O)(=O)NCc2ccc(C(=O)O)cc2)cc1
    0.68, -0.37
[82] C/C(=N\NC(=O)CCC(=O)Nc1ccc(C)c(C)c1)C1CC1
    0.18, -0.34
[83] Cc1csc(SCC(=O)NCc2ccc3c(c2)OCO3)n1
    1.2, -0.72
[84] Cc1ccc(NS(=O)(=O)c2cc(OCC(N)=O)c(C)cc2Cl)cc1C
    0.52, 0.08
[85] COc1ccc(-c2cc(=O)oc3c(C)c(OCC(=O)Nc4cccnc4)ccc23)cc1
    1.7, -1.2
[86] Cc1ccc(N2CC(C(=O)Nc3ccc4c(c3)OCCO4)CC2=O)cc1C (stereo unspecified)
    0.07, 1
[87] CCOc1ccccc1NC(=O)C(Sc1nnc2ccccn12)c1ccccc1 (stereo unspecified)
    1.2, -0.07
[88] O=C(O)/C=C\C(=O)Nc1ccccc1C#Cc1ccc(Br)cc1
    0.91, 2.1
[89] CC(=O)c1ccc(N2CCN(C(=S)Nc3cccc(F)c3)CC2)cc1
    0.04, 0.11
[90] Brc1cccc(-c2cnc3n2CCCCC3)c1
    0.19, 0
[91] Nc1ccc(C(=O)CC(=O)Nc2ccc(Cl)cc2)cc1
    1.1, -2
[92] Cn1c(=O)n(C)c2cc(S(=O)(=O)NCC(=O)O)ccc21
    0.85, 0.26
[93] C/C(CS(=O)(=O)c1ccc(Cl)cc1)=N/NC(N)=S
    1.3, 1.6
[94] COc1ccc(-n2c(SCC(=O)Nc3nccs3)nc3c(c2=O)SC(C)C3)cc1 (stereo unspecified)
    0.87, -0.45
[95] COc1cc(Oc2ccccc2)nc(N)n1
    0.1, 2.9
[96] COc1ccc(Cl)cc1NC(=O)NN1CCN(C)CC1
    0.88, 1.7
[97] Cc1cc(C)cc(NCCC#N)c1
    1.5, -1.1
[98] CSc1nnc(-c2cccs2)n1-c1ccccc1
    0.21, -0.28
[99] CCCOc1ccc(Br)cc1/C=N/NC(=O)c1cc(OC)c(OC)c(OC)c1
    0.18, 1.3
[100] Cc1cc(C)n(C(=O)CNC(=O)c2ccccc2Br)n1
    0.47, 0.21
[101] CS(=O)(=O)c1ccccc1-c1nc(-c2ccc(C(F)(F)F)cc2)no1
    1, -0.69
[102] Cc1cc(-c2n[nH]c(=S)n2-c2ccc(C)c(C)c2)no1
    1.3, -0.37
[103] CC(=O)N1CCN(c2ccc(NC(=O)c3ccc(Cl)c(Cl)c3)cc2)CC1
    0.73, -0.96
[104] Cc1c(-n2c(SCC(=O)NC(C)C)nc3ccccc3c2=O)c(=O)n(-c2ccccc2)n1C
    0.62, -0.36
[105] Cc1cc(NS(=O)(=O)c2ccc(NC(=O)/C=C/c3cccc(Cl)c3)cc2)no1
    0.51, -1.8
[106] COCCn1c(SCC(=O)Nc2ccc(NC(C)=O)cc2)nc2ccccc2c1=O
    0.05, -0.31
[107] CCCc1nc2c(C)cc(C)cc2c(N)c1CC
    1.3, 0.07
[108] Cn1c(=O)c2c(nc3n2CC(O)CN3c2ccc(O)cc2)n(C)c1=O (stereo unspecified)
    1.3, -0.38
[109] O=C(CSc1nc2ccccc2c(=O)[nH]1)N1CCN(c2ccccc2)CC1
    0.17, 0.92
[110] CCC(C(=O)Nc1cccc(C(=O)O)c1C)c1ccccc1 (stereo unspecified)
    0.43, 1.5
[111] Cn1c(SCc2ccc(Cl)cc2Cl)nc(C(F)(F)F)cc1=O
    0.03, -0.29

Seven compounds drawn at random from those above:
The line under a structure holds: KCNQ2 enhance, KCNQ2 enhance baseline
[18] C=CCC1NS(=O)(=O)OCC1C(C)C (stereo unspecified)
    0.1, 1.1
[5] COc1ccc(NC(=O)COC(=O)CCCOc2ccc(Cl)cc2Cl)cc1
    0.94, 2.2
[67] O=C(NC(=S)N1CCN(c2nc(-c3ccccc3)cs2)CC1)c1cccnc1
    2, 0.97
[102] Cc1cc(-c2n[nH]c(=S)n2-c2ccc(C)c(C)c2)no1
    1.3, -0.37
[32] Cc1ccnc(NC(=O)C2CC(=O)N(Cc3ccccc3)C2)c1 (stereo unspecified)
    0.46, 0.67
[64] CCC(CC)NC(=O)Cc1ccc(S(=O)(=O)N2CCOCC2)s1
    1.3, 0.58
[77] CCCc1ccc2oc(C(=O)NCCN3CCCC(O)C3)c(C)c2c1 (stereo unspecified)
    0.14, 0.72
